PINK1 modulator = A Quantitative High throughput Screen to Identify Chemical Modulators of PINK1 Expression; 410,000 compounds, 0.2% hits; PINK1 immunofluorescence, high-content cytometry, 24 h; Potency, µM (top dose mostly 76.6 µM), inactives show at the top dose activation (PINK1 increase), usual class: activators; active = well fitted activation curve with a large enough effect; inconclusive = small, poorly fitted or top-dose-only effect; inactive = flat fitted curve, though single readings scatter; cell line not stated here;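 also: % of control where 0% means no effect; nearly all actives have a fitted effect of over 65% in size; a mitochondrial uncoupler was the plate control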
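Decision-based qHTS: stable cells, 24 h exposure to five compound concentrations, CCCP as control. Fixed cells stained for PINK1 plus nuclear, mitochondrial and cell markers, cytometer read.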
Starred values were filed as active, the others as inactive. Potency is read from the fitted curve at half-maximal effect.

PINK1 modulator,structure
9.8%,COc1ccccc1-c1ccnc(-n2ncc(C(=O)N[C@H]3CCCCNC3=O)c2C2CC2)n1
0.5%,COC(=O)c1c(OCc2cccnc2)cc(=O)n2c1CCN(Cc1cc3c(cc1Cl)OCO3)CC2
-0.3%,CCn1c(-c2ccccc2F)nc2cc(NC(C)=O)cc(C(=O)N(C)Cc3c(C)nc4ccccn34)c21
0.1%,Cc1c(CN2CCOc3ccc(C(C)(O)COc4ccccc4)cc3C2)cnn1C (stereo not given)
-0.7%,Cc1ccc2c(c1)CN(CCNC(=O)c1n[nH]c3c1CCCC3)CC(C)O2 (stereo not given)
-0.9%,Oc1cccc2cc(-c3ccncc3)cnc12
-0.5%,COC(=O)N1CCC2(CCCN(c3ncccn3)C2)CC1
0.8%,Cc1noc(C)c1C(=O)N1CCC2(CCCN(C(=O)Nc3cccc(C#N)c3)C2)CC1
2.1%,CC(C)C(NS(C)(=O)=O)c1nnc2n1CCN(Cc1ccc(Cl)cc1)CC2 (stereo not given)
-0.3%,c1cncc(-c2nc(NCCN3CCOCC3)c3ccccc3n2)c1
-0.1%,COc1ccc2ccccc2c1CN1CCC2(CCC(CNC(=O)c3ccccc3)O2)CC1 (stereo not given)
5.4%,Cn1cc(-c2nc3cnc(Oc4cccc(Cl)c4)nc3n(CCC#N)c2=O)c2ccccc21
-0.6%,COc1ccc(Oc2ncc3nc(-c4cccc(C#N)c4)c(=O)n(CCC#N)c3n2)cc1
-0.6%,COc1ccccc1CNc1ncncc1-c1ccccc1CN(C)C
0.9%,COCCCNC(=O)c1cnn(-c2ncc3c(n2)-c2ccccc2CCC3)c1C
-0.1%,O=C(c1cccc(F)c1)N1CCC2(CCN(Cc3nccs3)CC2)CC1
5.7%,N#Cc1nc(Nc2cccc(Cl)c2)c2ncn(C3CCCC3)c2n1
0.4%,COc1ccc(-c2nc3cc(F)ccc3cc2CN(C(=O)c2ccc3c(c2)OCO3)C2CC2)cc1
1.3%,CC(C)C(NS(C)(=O)=O)c1nnc2n1CCN(Cc1ccc3cccnc3c1)CC2 (stereo not given)
-1.0%,Cc1cnc(C)c(-c2cc(F)cc3c2OC(CNC(=O)CN2CCCC2)C3)n1 (stereo not given)
-0.9%,CC(C)(O)C#Cc1ccc(C(=O)NCCN2Cc3ccccc3OC(c3ccccc3F)C2)o1 (stereo not given)
0.6%,Cc1cc(C(=O)NCC2Cc3cccc(-c4cncnc4)c3O2)c(C)o1 (stereo not given)
1.1%,COc1ccc(CNc2ccnc(-c3ccc(N(C)C)cc3)n2)c(OC)c1
1.3%,COC1C=CO[C@@]2(C)Oc3c(C)c(O)c4c(O)c(c5c(nc6cc(C)ccn65)c4c3C2=O)NC(=O)/C(C)=C\C=CC(C)C(O)[C@@H](C)C(O)C(C)[C@@H](OC(C)=O)C1C (stereo not given in full)
1.8%,COc1cc(=O)n2c(c1C(=O)N(C)Cc1ccsc1)CCN(Cc1cnn(C)c1C)CC2
0.6%,COc1cccc(-c2nc3cc(SC)ccc3cc2CN(C(=O)c2sccc2C)C2CC2)c1
2.8%,COCC(=O)N1CCC[C@@]2(CCN(C(=O)Nc3cccc(C#N)c3)C2)C1
2.0%,COCCn1c(=O)c(-c2cccc(C#N)c2)nc2cnc(OCc3ccccc3)nc21
0.8%,COc1cccc(-c2ccc3ncnc(Nc4ccccc4)c3c2)c1
-0.5%,CC(=O)NCCNc1cc(-c2ccccc2C)ncn1
-0.9%,CC(=O)N1CCC2(CCCN(c3cccc(-c4ccccc4)c3)C2)CC1
-0.1%,CC(=O)N1CCC2(CCCN(c3ccccc3)C2)CC1
2.5%,O=C(Cn1cc2ccccc2n1)N1CCOc2ccc(C(O)C3CCCCC3)cc2C1 (stereo not given)
-0.7%,COc1ccccc1-c1cc(Nc2ccn[nH]2)ncn1
-0.3%,CCn1c(-c2ccccc2F)nc2cc(NC(C)=O)cc(C(=O)N(C)Cc3cn(C)nc3C)c21
-1.3%,Cc1noc(C)c1-c1nccc(-n2ccnc2)n1
1.3%,Cc1noc(C)c1-c1cc(N(C)Cc2ccco2)ncn1
-1.1%,CS(=O)(=O)N1CCC2(CCCN(c3cccc(-c4ccccc4)c3)C2)CC1
0.0%,COc1ccccc1CN1CC2(CCN(C(=O)c3ccncc3)CC2)C1
0.1%,O=C(c1ccc(F)c(F)c1)N1CCOc2ccc(CN3CCN(Cc4ccccn4)CC3)cc2C1

Reformatted: entries from further up
| SMILES | PINK1 modulator |
| --- | --- |
| c1cncc(-c2nc(NCCN3CCOCC3)c3ccccc3n2)c1 | -0.3% |
| COc1ccc2ccccc2c1CN1CCC2(CCC(CNC(=O)c3ccccc3)O2)CC1 (stereo not given) | -0.1% |
| Cn1cc(-c2nc3cnc(Oc4cccc(Cl)c4)nc3n(CCC#N)c2=O)c2ccccc21 | 5.4% |
| COc1ccc(Oc2ncc3nc(-c4cccc(C#N)c4)c(=O)n(CCC#N)c3n2)cc1 | -0.6% |
| COc1ccccc1CNc1ncncc1-c1ccccc1CN(C)C | -0.6% |
| COCCCNC(=O)c1cnn(-c2ncc3c(n2)-c2ccccc2CCC3)c1C | 0.9% |
| O=C(c1cccc(F)c1)N1CCC2(CCN(Cc3nccs3)CC2)CC1 | -0.1% |
| N#Cc1nc(Nc2cccc(Cl)c2)c2ncn(C3CCCC3)c2n1 | 5.7% |
| COc1ccc(-c2nc3cc(F)ccc3cc2CN(C(=O)c2ccc3c(c2)OCO3)C2CC2)cc1 | 0.4% |
| CC(C)C(NS(C)(=O)=O)c1nnc2n1CCN(Cc1ccc3cccnc3c1)CC2 (stereo not given) | 1.3% |
| Cc1cnc(C)c(-c2cc(F)cc3c2OC(CNC(=O)CN2CCCC2)C3)n1 (stereo not given) | -1.0% |
| CC(C)(O)C#Cc1ccc(C(=O)NCCN2Cc3ccccc3OC(c3ccccc3F)C2)o1 (stereo not given) | -0.9% |
| Cc1cc(C(=O)NCC2Cc3cccc(-c4cncnc4)c3O2)c(C)o1 (stereo not given) | 0.6% |
| COc1ccc(CNc2ccnc(-c3ccc(N(C)C)cc3)n2)c(OC)c1 | 1.1% |
| COC1C=CO[C@@]2(C)Oc3c(C)c(O)c4c(O)c(c5c(nc6cc(C)ccn65)c4c3C2=O)NC(=O)/C(C)=C\C=CC(C)C(O)[C@@H](C)C(O)C(C)[C@@H](OC(C)=O)C1C (stereo not given in full) | 1.3% |
| COc1cc(=O)n2c(c1C(=O)N(C)Cc1ccsc1)CCN(Cc1cnn(C)c1C)CC2 | 1.8% |
| COc1cccc(-c2nc3cc(SC)ccc3cc2CN(C(=O)c2sccc2C)C2CC2)c1 | 0.6% |
| COCC(=O)N1CCC[C@@]2(CCN(C(=O)Nc3cccc(C#N)c3)C2)C1 | 2.8% |
| COCCn1c(=O)c(-c2cccc(C#N)c2)nc2cnc(OCc3ccccc3)nc21 | 2.0% |
| COc1cccc(-c2ccc3ncnc(Nc4ccccc4)c3c2)c1 | 0.8% |
| CC(=O)NCCNc1cc(-c2ccccc2C)ncn1 | -0.5% |
| CC(=O)N1CCC2(CCCN(c3cccc(-c4ccccc4)c3)C2)CC1 | -0.9% |
| CC(=O)N1CCC2(CCCN(c3ccccc3)C2)CC1 | -0.1% |
| O=C(Cn1cc2ccccc2n1)N1CCOc2ccc(C(O)C3CCCCC3)cc2C1 (stereo not given) | 2.5% |
| COc1ccccc1-c1cc(Nc2ccn[nH]2)ncn1 | -0.7% |
| CCn1c(-c2ccccc2F)nc2cc(NC(C)=O)cc(C(=O)N(C)Cc3cn(C)nc3C)c21 | -0.3% |
| Cc1noc(C)c1-c1nccc(-n2ccnc2)n1 | -1.3% |
| Cc1noc(C)c1-c1cc(N(C)Cc2ccco2)ncn1 | 1.3% |

New compounds follow:
PINK1 modulator,structure
1.3%,O=c1c(-c2ccccc2)nc2cnc(N3CCOCC3)nc2n1Cc1cccs1
6.4%,COc1ccc(C2=Nn3c(nnc3-c3ccccc3F)SC2)cc1OCC1CC1
1.0%,COc1cccc(Cn2c(=O)c(-c3ccc(F)cc3)nc3cnc(N(C)C)nc32)c1
-1.0%,O=C(c1ccco1)N1CCC[C@@]2(CCN(c3ncccn3)C2)C1
2.1%,CCOC(=O)C[C@@H](C#N)NC(=O)[C@@H]1CCCN1C(=O)[C@@H](NC(=O)c1ccc(N)c(Cl)c1)C(C)(C)C
0.0%,COc1cccc(C(=O)NCc2nc(-c3cccc(NC(=O)c4ccoc4C)c3)oc2C)c1OC
0.6%,Cn1cccc1C(=O)N1CCC2(CCN(Cc3ccc(C#N)cc3)CC2)CC1
1.3%,COCCn1c(=O)c(-c2ccccc2)nc2cnc(Oc3ccccc3)nc21
-0.5%,O=C(NCc1nnc2n1CCN(Cc1ccc(C(F)(F)F)cc1)CC2)c1cccc(F)c1
-0.7%,CC(C)Cc1nc2cc(NS(=O)(=O)N(C)C)cc(C(=O)N3CCc4ccccc4C3)c2n1C
2.2%,CC1CN(CCC(=O)N2CCCC(C(=O)c3nccn3C)C2)Cc2cc(Cl)ccc2O1 (stereo not given)
-0.6%,COc1cccc(Cn2c(=O)c(-c3cccc(Cl)c3)nc3cncnc32)c1
4.1%,N#Cc1cccc(-c2nc(NCc3ccccc3)c3ccccc3n2)c1
2.1%,COc1ccc2c(c1)CCc1cnc(-n3ncc(C(=O)NC4CCOC4)c3C3CC3)nc1-2 (stereo not given)
-0.3%,C[C@H](NC(=O)CCC1CCC(=O)N1)c1ccccc1 (stereo not given in full)
1.4%,CN(C)C(=O)c1ccc(-c2cncnc2NCc2cccs2)cc1

2 of the compounds above, tab-delimited.
SMILES	PINK1 modulator
COc1cccc(Cn2c(=O)c(-c3cccc(Cl)c3)nc3cncnc32)c1	-0.6%
N#Cc1cccc(-c2nc(NCc3ccccc3)c3ccccc3n2)c1	4.1%

Carrying on:
PINK1 modulator,structure
0.2%,COC(=O)C1CCN(Cc2ccc3c(c2)CN(C(=O)c2cc(C)on2)CCO3)CC1
0.5%,Cc1ccc(CN2CCOc3ccc(CN4CCC(O)(c5cccnc5)CC4)cc3C2)cc1C
0.5%,COCCN1CCN(C(=O)c2cnn(-c3nccc(-c4ccco4)n3)c2C2CC2)CC1
-0.4%,COc1ccccc1C1CN(CC(=O)NCC2OCCc3ccccc32)Cc2ccccc2O1 (stereo not given)
-1.1%,COc1ccc(C(=O)NCC2Cc3cc(C)cc(-c4nc5ccccc5s4)c3O2)c(OC)c1OC (stereo not given)
1.1%,COc1ccc(C(=O)N2CCC3(CCCN(c4cccc(-c5ccccc5)c4)C3)CC2)cc1
0.2%,O=c1c(-c2ccccc2)nc2cncnc2n1Cc1ccccc1
2.3%,O=C(c1cnccn1)N1CCC[C@@]2(CCN(c3cccc(-c4ccccc4)c3)C2)C1
1.2%,O=C(NCCc1nnc2n1CCN(Cc1ccccn1)CC2)c1ccc(F)cc1
-0.2%,COCCn1c(=O)c(-c2cccs2)nc2cnc(OC)nc21
3.0%,O=C(c1csnn1)N1CCC2(CCCN(C(c3ccccc3)c3ccccc3)C2)CC1
1.4%,COc1ccc(C(=O)N2CCC3(CCN(C(=O)Nc4cccc(F)c4)CC3)CC2)cc1
-0.2%,COc1ccccc1CN1CCCC(n2cc(C(=O)N3CCCC3)nn2)C1 (stereo not given)
-0.3%,NC(N)=NCCCCN=C(N)N
-1.3%,COc1ccc2[nH]cc(CCNc3ncncc3-c3ccc(C(=O)N(C)C)cc3)c2c1
-1.1%,Cn1c2ccsc2c2ncn(Cc3ccccc3F)c(=O)c21
3.5%,COc1ccccc1CNc1ccnc(-c2ccccc2C(F)(F)F)n1
1.2%,COc1ccccc1CNc1cc(-c2ccc(C(=O)N(C)C)cc2)ncn1
0.6%,CCC1CN(CCNC(=O)c2cc(C)nn2CC)Cc2cc(OC)ccc2O1 (stereo not given)
5.2%,COc1ccc(Oc2ncc3nc(-c4ccc(OC)cc4)c(=O)n(CCC#N)c3n2)cc1
0.0%,CCNc1ncc2nc(-c3ccccc3)c(=O)n(CCC#N)c2n1
-0.6%,COc1cccc(Nc2ncc3ncc(=O)n(Cc4cccs4)c3n2)c1
-0.3%,O=C(Oc1ccccc1)N1CCC2(CC1)CCN(c1ncccn1)CC2
3.0%,CN(C)c1ncc2nc(-c3ccc(F)cc3)c(=O)n(Cc3ccc(F)cc3)c2n1
0.7%,Cn1c(=O)c(-c2cccs2)nc2cncnc21
-0.6%,Cc1cccc(CNC(=O)c2cnn(-c3nccc(-c4ccccc4F)n3)c2C)n1
-1.2%,O=S(=O)(c1ccccc1)N1CCC[C@@]2(CCN(c3ncccn3)C2)C1
1.7%,COCCCNc1ncnc2sc(C(=O)N3CCOCC3)c(C)c12
1.8%,COc1ccc2c(c1)OC(C)CN(CCNC(=O)C1CCOC1)C2 (stereo not given)
0.8%,Cc1ncoc1C(=O)N1CCOc2ccc(CN3CCC(Oc4cccnc4)CC3)cc2C1
0.6%,O=C(Nc1cc(C(=O)N2CCN(CCO)CC2)c2c(c1)ncn2C1CCCC1)c1ccccc1
-0.3%,COC(=O)N1CCC2(CCN(C(=O)Nc3cccc(F)c3)CC2)CC1
10%,COc1ccc(-c2nc3cncnc3n(-c3ccccc3)c2=O)cc1
0.1%,c1cn(-c2ccnc(-c3ccc4c(c3)OCO4)n2)cn1
-0.4%,CCC(O)CNC(=O)c1cnn(-c2ncc3c(n2)-c2ccc(OC)cc2CC3)c1C1CC1 (stereo not given)
-0.3%,COc1cccc(CN2C(=O)NC(C)(C3CCN(Cc4ccc(C)o4)CC3)C2=O)c1OC (stereo not given)
-0.8%,Cn1cccc1C(=O)N1CCC2(CC1)CN(c1ccccn1)C2
3.9%,O=c1c(-c2ccc(Cl)cc2)nc2cnc(N3CCOCC3)nc2n1C1CC1
6.0%,C=C[C@](C)(O)CCC1C(=C)CCC2[C@@](C)(CO)CCC[C@@]12C (stereo not given in full)
-0.2%,CN(C)c1ccc(CN2CCOc3ccc(CN4CCC(O)(c5cccnc5)CC4)cc3C2)cc1
-0.2%,O=S(=O)(c1ccccc1)N1CCC2(CCCN(c3ccccc3)C2)CC1

A portion of the library, so the mix of outcomes need not match the whole.
